Bioassay records deposited in PubChem BioAssay by GNF / Scripps  Winzeler lab.
liver stage = Plasmodium liver-stage growth inhibition, dose response, imaging, Malaria Box, P. yoelii, HepG2-A16-CD81EGFP (AID 602156). P. yoelii liver stage in HepG2-A16-CD81EGFP, imaging; first-round cut-off not given here. 5,700 tested, 4.8% active. calls after a first round at 10 µM; hits with a dose series show IC50 in µM; in the data active means a potency from the dose series;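 further: infected cells exposed to compound for 48 hours before fixation; stained parasite area by imaging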
An asterisk follows results filed as active; i = inactive. Not all compounds are listed; count on the stated rates, not on these rows.

SMILES	liver stage
C=CC1CN2CCC1CC2[C@H](O)c1ccnc2ccc(O)cc12 (stereo partly specified)	i
c1ccc2c(c1)ccc[n+]2CCCCCC[n+]1cccc2ccccc21	i
COc1ccccc1-n1c(C=Cc2cc(Br)ccc2O)nc2ccccc2c1=O	4.6µM*
N#CC1=C(N)Oc2c(c(=O)oc3ccccc23)C1c1ccoc1 (stereo unspecified)	i
CC(Cc1ccccc1)NCCCCCCCNC(C)Cc1ccccc1 (stereo unspecified)	i
C=CC1(O)CN2CCC1CC2[C@@H](O)c1ccnc2ccc(OC)cc12 (stereo partly specified)	i
C=C[C@H]1CN2CC[C@H]1C[C@@H]2[C@@H](OC(=O)C(C)C)c1ccnc2ccccc12	i
COc1ccc2c(c1)CC1c3c(cc4c(c3-2)OCO4)CCN1C (stereo unspecified)	i
Cc1nc(-c2ccccn2)nc(NCCc2ccccc2)c1Cl	i
c1ccc(C2=NN(c3ccccc3)N(c3ccccc3)N2)cc1	i
CC[C@H]1CN2CC[C@H]1C[C@H]2[C@H](O)c1ccnc2ccccc12	i
C/C(=C\c1csc(C)n1)[C@@H]1C[C@@H]2O[C@@H]2CCC[C@H](C)C(O)[C@@H](C)C(=O)C(C)(C)[C@@H](O)CC(=O)O1 (stereo partly specified)	i

A draw from above in order of length of the SMILES, descending:
SMILES	liver stage
C/C(=C\c1csc(C)n1)[C@@H]1C[C@@H]2O[C@@H]2CCC[C@H](C)C(O)[C@@H](C)C(=O)C(C)(C)[C@@H](O)CC(=O)O1 (stereo partly specified)	i
c1ccc2c(c1)ccc[n+]2CCCCCC[n+]1cccc2ccccc21	i
C=CC1CN2CCC1CC2[C@H](O)c1ccnc2ccc(O)cc12 (stereo partly specified)	i

New compounds follow.
SMILES	liver stage
CC1CCC2C(C)C(=O)OC3OC4(C)CCC1C32OO4 (stereo unspecified)	i
CNCC(O)c1ccc(Cl)c(Cl)c1 (stereo unspecified)	i
C=C[C@H]1CN2CC[C@H]1C[C@H]2[C@H](OC(=O)CC)c1ccnc2ccccc12	i
CC(=O)OC1(C)CC(C)C(=O)C(C(O)CC2CC(=O)NC(=O)C2)C1 (stereo unspecified)	i
Cc1ccc(-n2c(C)c(C(=O)c3ccccc3)c3cc(O)ccc32)cc1	i
C=CC1CN2CCC1CC2[C@@H](OC(=O)/C=C/c1ccc(Cl)cc1)c1ccnc2ccc(OC)cc12 (stereo partly specified)	i
COc1ccc(CC2NCC(O)C2OC(C)=O)cc1 (stereo unspecified)	i
C=CC1CN2CCC1CC2C(OC(=O)C1CC1)c1ccnc2ccccc12 (stereo unspecified)	i
CC1=CC(=O)OC[C@]23CCC(C)=C[C@H]2O[C@@H]2C[C@@H](OC(=O)C=CC=CC(=O)OCC1)[C@@]3(C)[C@]21CO1	i
O=c1cccc2n1CC1CC2CN(Cc2cccc(O)c2)C1 (stereo unspecified)	i
Oc1ccc(-c2ccnc3cc(Cl)ccc23)cc1CNC1CN2CCC1CC2 (stereo unspecified)	i
O=c1c2ccccc2nc(C=Cc2ccc([N+](=O)[O-])o2)n1-c1ccc(Br)cc1	i

Gathered by group, the compounds so far with a Cl atom
SMILES	liver stage
Cc1nc(-c2ccccn2)nc(NCCc2ccccc2)c1Cl	i
CNCC(O)c1ccc(Cl)c(Cl)c1 (stereo unspecified)	i
C=CC1CN2CCC1CC2[C@@H](OC(=O)/C=C/c1ccc(Cl)cc1)c1ccnc2ccc(OC)cc12 (stereo partly specified)	i
Oc1ccc(-c2ccnc3cc(Cl)ccc23)cc1CNC1CN2CCC1CC2 (stereo unspecified)	i

Following part.
SMILES	liver stage
CO/C(=C\C(N)=O)C(C)C(/C=C/c1csc(-c2csc(C(C)/C=C/C=C/C(C)C)n2)n1)OC (stereo unspecified)	i
COc1cc2c(O[C@@H]3O[C@H](CO)[C@@H](O)[C@H](O)[C@H]3O)c3c(c(-c4ccc5c(c4)OCO5)c2cc1OC)C(=O)OC3	i
CCC(C)N1CCN(Cc2cccc(OC)c2OC)CC1 (stereo unspecified)	i
O=C(Cn1c2ccccc2c(=O)c2ccccc21)Nc1ccc(Cl)cc1C(=O)c1ccccc1	i
Cc1ccn2c(NC(C)(C)CC(C)(C)C)c(-c3ccccc3OC(=O)Cc3ccccc3)nc2c1	i
C=C1[C@@H](C)[C@H]2[C@H](Cc3ccccc3)NC(=O)[C@]23C(OC(C)=O)C=C[C@@](C)(O)C(=O)[C@@H](C)CC=C[C@H]3[C@@H]1O (stereo partly specified)	i
OCCC1CN(Cc2cccc(Cl)c2)CCN1Cc1ccccc1 (stereo unspecified)	i
C=C[C@H]1CN2CC[C@H]1C[C@@H]2[C@@H](OC(=O)c1cccs1)c1ccnc2ccccc12	i

Laid out differently: entries from further up.
| Structure | liver stage |
| --- | --- |
| CO/C(=C\C(N)=O)C(C)C(/C=C/c1csc(-c2csc(C(C)/C=C/C=C/C(C)C)n2)n1)OC (stereo unspecified) | i |
| OCCC1CN(Cc2cccc(Cl)c2)CCN1Cc1ccccc1 (stereo unspecified) | i |
| O=C(Cn1c2ccccc2c(=O)c2ccccc21)Nc1ccc(Cl)cc1C(=O)c1ccccc1 | i |
| Cc1ccn2c(NC(C)(C)CC(C)(C)C)c(-c3ccccc3OC(=O)Cc3ccccc3)nc2c1 | i |
| C=C[C@H]1CN2CC[C@H]1C[C@@H]2[C@@H](OC(=O)c1cccs1)c1ccnc2ccccc12 | i |
| COc1cc2c(O[C@@H]3O[C@H](CO)[C@@H](O)[C@H](O)[C@H]3O)c3c(c(-c4ccc5c(c4)OCO5)c2cc1OC)C(=O)OC3 | i |
